Compound activity as filed in PubChem.
CSC inhib: blocks cancer stem cells | cancer stem cell-like cells viability, luminescence | inhibition, % at 7.5 µM | actives 1.1% (n = 300,000) | AID 2717;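 active means mean at 75% or more and at least half the replicates too; tested in HMLE shEcad cells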;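 further: 0% = median of negative and 100% = median of positive control wells; the first replicate is given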
Rce1 inhib: inhibitors of yeast Ras-converting enzyme | Q03530 | yeast membranes, quenched prenylated peptide cleavage fluorescence | calls only | actives 0.27% (n = 290,000) | AID 2563;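 active means fall in fluorescence gain of 50% or more versus controls, with final raw signal at or below 3038400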;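 further: plate controls were neutral control wells for no effect and wells lacking membranes for full effect; tested at 10 µM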
UUG fidelity: yeast start codon fidelity modulation. S. cerevisiae UUG-firefly luciferase reporter, luminescence/redox ratio. activity score, % at 18.7 µM. actives 0.13% (n = 350,000). AID 602363;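 active means replicate mean at a twofold rise or more, about +100% in these data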;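 further: firefly luciferase made from a UUG start codon reports start codon fidelity; reporter light over untreated wells divided by growth signal over untreated wells; some hits fall short of that in this replicate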
HIV Env fusion: blocks HIV Env-driven cell-cell fusion. actives 1.1% (n = 360,000). AID 651610. inhibition, % at 12.3 µM. HeLa-JRFL Env/CEM21 cell fusion, luciferase;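 active means mean replicate inhibition score of at least 50 and every replicate individually at or above 50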;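 further: 0% = plate neutral controls and 100% = maraviroc near 300 nM; one replicate is shown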
eIF4H FP inh: inhibitors of RNA binding by human eIF4H | Q15056 | eIF4H fluorescence polarization binding assay | inhibition, % at 35 µM | actives 0.94% (n = 290,000);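 active means 50% or more with normal probe brightness, or confirmed in later tests; about a fifth of its hits are not listed in these tables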;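 further: calls also rest on retests at 20 µM and on dose response follow-up; 0% = protein and probe with vehicle and 100% = probe without protein; strong numbers were not always called active; many hits fall short of the cut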
MT1-MMP act inh: MT1-MMP (human) activation inhibition; P50281; HT1080 RFP-PRO-GFP cells, GFP/RFP ratio fluorescence, overnight; percent of plate control window, DMSO zero; GFP/RFP ratio change, % at 20 µM; actives 0.061% (n = 360,000);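 active means GFP/RFP ratio change of at least 30% with cell ATP level not reduced by more than half and red fluorescence within 50% of control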; further: strong numbers were not always called active
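Test system: HT1080 RFP-PRO-GFP cells; Benchmarks: DMSO and RFP-L50D-GFP cell wells; Timing: cells overnight before dosing, compound overnight, 37 °C, 5% CO2; Compound: one 20 µM compound dose with 1% DMSO; Read-out: GFP/RFP fluorescence ratio.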
PABP FP inh: blocks human PABP binding to poly(A) RNA; P11940; fluorescence polarization; inhibition, % at 35 µM; actives 1% (n = 290,000);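 active means 50% or more with normal probe brightness, or confirmed in later tests; about a fifth of its hits are not listed in these tables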;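 further: calls also rest on retests at 20 µM and on dose response follow-up; controls were probe without protein and protein plus probe with vehicle; some compounds called inactive have numbers as strong as hits; many hits fall short of the cut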
Target sequence (P11940 whole entry, looked up): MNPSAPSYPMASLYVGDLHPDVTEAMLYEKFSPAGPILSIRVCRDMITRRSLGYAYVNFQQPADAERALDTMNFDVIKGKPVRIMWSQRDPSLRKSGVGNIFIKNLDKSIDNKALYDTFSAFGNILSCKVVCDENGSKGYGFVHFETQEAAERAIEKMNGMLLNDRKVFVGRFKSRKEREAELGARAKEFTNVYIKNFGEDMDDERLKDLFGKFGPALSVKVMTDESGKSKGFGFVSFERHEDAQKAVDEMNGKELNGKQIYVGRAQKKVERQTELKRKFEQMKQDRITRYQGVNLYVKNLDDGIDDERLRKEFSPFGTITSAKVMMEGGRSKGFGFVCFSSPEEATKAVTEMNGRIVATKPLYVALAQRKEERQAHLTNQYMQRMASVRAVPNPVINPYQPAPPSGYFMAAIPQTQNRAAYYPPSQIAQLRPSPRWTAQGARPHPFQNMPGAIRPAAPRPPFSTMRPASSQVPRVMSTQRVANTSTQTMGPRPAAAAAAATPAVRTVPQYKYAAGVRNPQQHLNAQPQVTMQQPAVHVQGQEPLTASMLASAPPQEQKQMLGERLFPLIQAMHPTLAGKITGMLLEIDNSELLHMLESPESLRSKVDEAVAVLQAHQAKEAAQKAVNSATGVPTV
eIF4H FP inh retest: also measured in eIF4H FP inh; calls as there; inhibition, %; compound at 20 µM; confirmation average;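 mean of two retest wells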
PABP FP inh retest: second read-out of PABP FP inh, no call of its own (marks repeat the call); inhibition, %; compound at 20 µM; confirmation repeats;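 mean of two retest wells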
MT1-MMP act inh RFP: further read-out of MT1-MMP act inh, marked with its call; RFP signal change, %; measured here: RFP expression control read;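 0 = vehicle wells; hits needed this value within 50% of zero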
An asterisk follows results filed as active; i = inactive; . = no result given; & = joins results of further samples; ! = a repeat was not active. An excerpt, so the mix of outcomes need not match the whole.

Sample of the layout:
SMILES | CSC inhib | Rce1 inhib | UUG fidelity | HIV Env fusion | eIF4H FP inh | MT1-MMP act inh | MT1-MMP act inh RFP | PABP FP inh | others
O=C(CN1C(=O)CSc2ncccc21)N1CCOCC1 | -8 | i | -16 | -1 | -3 | 0 | 7 | -6
Cc1ccc(C(=O)Nc2ccc(F)cc2)cc1NC1=NC2CS(=O)(=O)CC2S1 (centres undefined) | -5 | i | -7 | -156 | -2 | 1 | 3 | 2

The whole of this part, repeating the preview:
SMILES | CSC inhib | Rce1 inhib | UUG fidelity | HIV Env fusion | eIF4H FP inh | MT1-MMP act inh | MT1-MMP act inh RFP | PABP FP inh | others
O=C(CN1C(=O)CSc2ncccc21)N1CCOCC1 | -8 | i | -16 | -1 | -3 | 0 | 7 | -6
Cc1ccc(C(=O)Nc2ccc(F)cc2)cc1NC1=NC2CS(=O)(=O)CC2S1 (centres undefined) | -5 | i | -7 | -156 | -2 | 1 | 3 | 2
CNc1ccccc1C(C)(C)c1cc(-c2ccco2)n[nH]1 | -18 | i | -11 | . | 44 | 34* | 26* | 36
COCCn1c(=NC(=O)CSCC(=O)NC2CCCCC2)sc2cc(OC)ccc21 | . | . | 6 | 13 | -7 | 6 | -4 | 8
CCOC(=O)/C(=N\Nc1cc(Cl)ccc1Cl)N1CCOCC1 | -7 | i | . | 11 | 38 | -1 | -6 | 12
CCNc1nc(NCC)nc(N(C#N)C(C)C)n1 | -18 | i | -23 | -17 | -3 | 4 | 4 | -4
CCN1C(=O)CC(C(=O)O)SC1=Nc1ccc(OC)cc1 (centres undefined) | -9 | i | -6 | -9 | -1 | -2 | 0 | 2
CCc1cccc(C)c1NC(=O)CN(C)Cc1cccc(F)c1 | 3 | i | -8 | -11 | -1 | 3 | -2 | 5
Cc1ccc(CCNC(=O)CN(C)S(=O)(=O)c2ccc3c(c2)c(=O)n(C)c(=O)n3C)cc1 | -18 | i | 1 | 17 | -4 | -3 | 4 | 0
Cc1ccc(NC(=O)/C=C\C(=O)NCC(=O)O)cc1C | 25 | i | -16 | -1 | 2 | -1 | 5 | 34
Cc1ccn2c(=O)c(NC(=O)COc3ccccc3)c(C)nc2c1 | -19 | i | -15 | 12 | . | 0 | 2 | .
CCn1c(SCC(=O)NCc2ccc(F)cc2)nc2c(c1=O)SC(C)C2 (centres undefined) | -6 | i | -10 | 29 | -7 | 1 | 1 | -12
Cc1ccc(C(=O)Nc2ncc(Cc3ccc(SC(F)F)cc3)s2)cc1 | -23 | i | -11 | -21 | -9 | 12 | -8 | 0
CCCC1(c2ccccc2)NC(=O)N(CC(=O)N2CC(=O)Nc3ccccc32)C1=O (centres undefined) | 4 | . | 0 | 4 | . | 5 | 2 | .
O=C(CSc1nc(=O)n2ccccc2n1)NCc1ccccc1Cl | -15 | i | -17 | -3 | . | -1 | 2 | .
O=C(NC1CCOC1=O)OCc1ccccc1 (centres undefined) | . | . | -11 | -4 | . | -2 | 3 | .
CCCCN(CCCC)c1ncnc2nc[nH]c12 | . | i | . | 36 | 6 | -15 | -14 | -8
O=C(CN1CCN(Cc2ccccc2Cl)C1=O)NCc1ccco1 | -5 | i | . | -33 | -3 | 1 | 1 | -8
CC1CCC(C(C)C)C(OC(=O)Cn2c(-c3ccc(Br)cc3)[n+](C)c3ccccc32)C1 (centres undefined) | 3&52 | i | 5 | 58*! | -7&-1 | -47&-25 | -36&-40 | 7&2
CC1(C)Cc2nc(Cl)c(C#N)cc2CO1 | -2 | i | -40 | 7 | -8 | -10 | -1 | -4

Random excerpt: two records from the list, in no set order.
SMILES | CSC inhib | Rce1 inhib | UUG fidelity | HIV Env fusion | eIF4H FP inh | MT1-MMP act inh | MT1-MMP act inh RFP | PABP FP inh | others
CCc1cccc(C)c1NC(=O)CN(C)Cc1cccc(F)c1 | 3 | i | -8 | -11 | -1 | 3 | -2 | 5
O=C(CN1C(=O)CSc2ncccc21)N1CCOCC1 | -8 | i | -16 | -1 | -3 | 0 | 7 | -6

The main list resumes, starting three compounds before the break.
SMILES | CSC inhib | Rce1 inhib | UUG fidelity | HIV Env fusion | eIF4H FP inh | MT1-MMP act inh | MT1-MMP act inh RFP | PABP FP inh | others
O=C(CN1CCN(Cc2ccccc2Cl)C1=O)NCc1ccco1 | -5 | i | . | -33 | -3 | 1 | 1 | -8
CC1CCC(C(C)C)C(OC(=O)Cn2c(-c3ccc(Br)cc3)[n+](C)c3ccccc32)C1 (centres undefined) | 3&52 | i | 5 | 58*! | -7&-1 | -47&-25 | -36&-40 | 7&2
CC1(C)Cc2nc(Cl)c(C#N)cc2CO1 | -2 | i | -40 | 7 | -8 | -10 | -1 | -4
CCC(C)NC(=O)c1ccccc1NC(=O)C(C)N(c1ccccc1)S(C)(=O)=O (centres undefined) | -5 | i | -6 | . | -4 | 2 | 1 | -4
CC(C)Nc1nc(NC(C)C)nc(Oc2ccc(OCc3ccccc3)nn2)n1 | 14 | i | -2 | . | 3 | 4 | 8 | -1
CCN(CC)c1ccc(CN(C(=O)c2ccco2)C2CCS(=O)(=O)C2)cc1 (centres undefined) | -23 | . | -17 | . | 1 | 10 | -2 | 7
CC1CCCC(NC(=O)c2ccc3snnc3c2)C1C (centres undefined) | -2 | i | -19 | -18 | -4 | 2 | -1 | 6
COc1cc2c(cc1OC)C(C(=O)N1CCCCC1)C(c1ccccc1F)N(C)C2=O (centres undefined) | 2 | i | -13 | -1 | 8 | 1 | 3 | -13
CC(=O)c1ccc(S(=O)(=O)N2CCN(C(=O)CSc3ccc(C)c(C)c3)CC2)cc1 | 7 | i | -6 | -9 | -4 | -2 | -6 | 2
CCOC(=O)C1CCN(C(=O)COc2cc(C)c(Br)cc2C)CC1 | 0 | i | 18 | . | -13 | 0 | -13 | -9
CCOc1ccc(NC(=O)c2sc3nc(N4CCOCC4)c4c(c3c2N)CC(C)(C)OC4)cc1 | -25 | i | -29 | 14 | 1 | 1 | 2 | 4
CC1(C(=O)NCC(F)(F)F)CCN1C(=O)Cc1ccc(-c2ccccc2)cc1 (centres undefined) | . | . | 12 | 7 | . | 4 | -4 | .
CC(OC(=O)c1ccccc1O)C(=O)Nc1ccc(Cl)cn1 (centres undefined) | 0 | i | . | 4 | 8 | -1 | 0 | 16
CCc1ccccc1NC(=S)Nc1cc(OC)c(NC(=O)C(C)C)cc1OC | -14 | i | -12 | 10 | 6 | 15 | 5 | 6
CC[C@@]12C(=O)N(c3cccc(Br)c3)C(=O)N1[C@H](c1ccc(Br)cc1)[C@@H]1C(=O)N(C(C)(C)C)C(=O)[C@@H]12 | 6 | i | -8 | -11 | . | -1 | -2 | .
OC[C@@H]1CC[C@@H](Cc2ccc(-c3ccccc3)cc2)O1 | . | . | -4 | -30 | . | 5 | -5 | .
CC(NC(=O)c1cc(-c2cccs2)on1)c1ccccc1 (centres undefined) | -6 | i | . | -33 | 4 | 5 | 1 | -4
COC(=O)Cn1cnc2scc(-c3ccc(C)cc3)c2c1=O | 3 | i | 11 | -12 | 2 | -2 | -2 | -11
Cc1ccc(CC2C(=O)N(CC(=O)O)C(=O)C2C)cc1 (centres undefined) | 4 | i | -9 | -4 | 0 | -1 | -1 | 10
Cc1cc(-n2cnnn2)cc(C)c1S(=O)(=O)N(C)c1ccccc1 | -11 | . | -14 | -6 | -3 | 4 | 5 | -1
CCCc1nc2oc3c(=O)[nH]cnc3c2c2c1CCCC2 | -4 | i | . | 0 | -2 | -5 | 3 | 7
O=C(Nc1ccc2c(c1)CCC2)C1CCCN(c2ncccn2)C1 (centres undefined) | 25 | i | -18 | -100 | -4 | -5 | -4 | 0
C=C(c1ccccc1)c1ccc(N(C)C)cc1 | -2 | i | -11 | 7 | 0 | 1 | 0 | 4
O=C(O)C1C2CCC(O2)C1C(=O)Nc1ccc(OC(F)F)cc1 (centres undefined) | -1 | i | -32 | -6 | 20 | 11 | 9 | -9
Cc1ccc(Cn2nc(C)c(NC(=O)c3noc4c3CCCCC4)c2C)cc1 | -9 | i | 10 | -17 | -8 | -2 | -3 | -8
O=C(CCNc1n[nH]c(=O)[nH]c1=O)N1CCCCC1 | -3 | i | -25 | -104 | -2 | 1 | 1 | -3
COc1ccccc1C(=O)OCc1c(F)cccc1Cl | 9 | i | 10 | . | -14 | -1 | 1 | -8
CC(C)C(C(=O)NC(C)(C)C)N1C(=O)c2ccccc2C1=O (centres undefined) | -7 | i | 5 | 22 | 5 | -6 | -2 | 9
O=C(CCS(=O)(=O)c1ccccc1)Nc1ccc2c(c1)OCO2 | -8 | i | . | -14 | 72 | 0 | 0 | 18 | eIF4H FP inh retest=-4;PABP FP inh retest=11
CCOC(=O)C1CCN(C(=O)C23CC4CC(CC(C4)C2)C3)CC1 | 1 | i | 14 | 16 | -6 | 0 | -1 | -8
Cc1ccccc1Cn1cc(NC(=O)CCCn2nc([N+](=O)[O-])cc2C)cn1 | 14 | i | -16 | 0 | 5 | 2 | 1 | -7
COc1cccc(CN2CCNC(=O)C2CC(=O)N(C)CCc2ccccn2)c1OC (centres undefined) | 15 | i | . | . | 1 | . | . | 4
CN(C)CCN(C)C1CN(Cc2ccc([N+](=O)[O-])cc2)S(=O)(=O)C1 (centres undefined) | . | . | -12 | -136 | . | -1 | 6 | .
CN(C)S(=O)(=O)c1ccc(NC(=O)CSc2nnnn2C)cc1 | -17 | i | . | 12 | -3 | 4 | 6 | 3
O=C1CC(NC(=O)C(F)(F)F)c2cc3c(cc21)OCO3 (centres undefined) | -15 | i | -8 | -21 | -7 | 1 | 3 | 10
COc1cccc(N2[C@@H](CC(=O)O)c3ccc(/C=C/C(=O)O)cc3S2(=O)=O)c1 | -1 | i | 23 | 5 | . | 4 | 4 | .
O=C(c1cccc2ccccc12)N1CCN(c2ccc([N+](=O)[O-])c(N3CCOCC3)c2)CC1 | -15 | i | . | 23 | -12 | 3 | -11 | 2
O=[N+]([O-])c1ccc2nc(NS(=O)(=O)c3ccccc3[N+](=O)[O-])sc2c1 | 15 | i | -16 | 2 | 9 | -2 | 0 | -4
CC(=O)Nc1ccc(/C=C/c2ccc3c([N+](=O)[O-])cccc3n2)cc1 | 9 | i | . | -37 | -5 | 3 | -4 | 11
O=C(N/N=C/c1ccc(O)cc1O)NC12CC3CC(CC(C3)C1)C2 | 27 | i | -6 | 3 | -2 | 3 | -6 | 15
COc1ccccc1NS(=O)(=O)c1ccc(NC(=O)c2[nH]nc(OC)c2[N+](=O)[O-])cc1 | 1 | i | -17 | . | 28 | 7 | -4 | 0
CCC1CCCCN1C(=O)COc1ccccc1NC(C)=O (centres undefined) | 12 | i | . | 20 | -2 | 2 | 2 | 6
C=CCN1CC(=O)N2C(C)c3[nH]c4ccccc4c3C[C@H]2C1=O (some centres undefined) | 6 | i | -6 | 4 | 2 | 4 | 0 | 8
